Source: PubChem
MgrA-DNA mod: alters Staphylococcus aureus MgrA binding to DNA; fluorescence polarization; inhibition, %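 (about 10 µg/mL by stock and volumes)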; 84,000 tested, 0.13% active;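 active means above 50% in either of two replicates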;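 further: 0% = protein plus DNA without compound and 100% = DNA alone without protein; higher means less MgrA bound to DNA so lower polarization; one replicate is shown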
Sa helicase inh: blocks Staphylococcus aureus DNA helicase; purified S. aureus helicase, fluorescence unwinding assay; about half of the hits fall short of the stated cut; inhibition, %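 (tested at about 80 µM)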; 120,000 tested, 0.05% active;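 active means both duplicates at 50% or more, or one of them with a favoured structure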;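 further: 0% = mean of negative control wells and 100% = mean of positive control wells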
Numbers without * were called inactive; nt = not tested or not shown. An excerpt, so the mix of outcomes need not match the whole.

SMILES	MgrA-DNA mod	Sa helicase inh
COc1cc(/C=C2\N=C(c3cc(F)c(F)cc3Cl)OC2=O)cc(OC)c1OC	-2.0	nt
O=C(CN1C(=O)c2ccccc2C1=O)Nc1ccc(N2CCOCC2)cc1	nt	39
COc1cccc(-c2nnc(SC3CCOC3=O)n2C)c1 (stereo not drawn)	nt	3
O=C(NCCOc1ccccc1F)c1ccccc1Nc1cccc2ccccc12	-1.5	6
CCOC(=O)CSc1nnc(COc2cccc(C)c2)o1	-0.8	12
NC(=O)c1ncoc1-c1cccc(Cl)c1	-1.4	nt
O=C(CCCN1C(=O)c2ccccc2C1=O)Nc1ccc(S(=O)(=O)NC2CCCCC2)cc1	nt	5
COc1ccc(Cl)cc1-n1cnc2sc(C)c(C)c2c1=O	-1.1	16
Cc1ccccc1N(C)C(=O)Cn1cnc2onc(C)c2c1=O	nt	-22
CC1CN(Cn2nc(-c3cccc(S(=O)(=O)N4CCOCC4)c3)oc2=S)CC(C)O1 (stereo not drawn)	nt	-3

A different layout for three compounds above.
Each structure is followed by: MgrA-DNA mod, Sa helicase inh
COc1ccc(Cl)cc1-n1cnc2sc(C)c(C)c2c1=O
→ -1.1, 16
Cc1ccccc1N(C)C(=O)Cn1cnc2onc(C)c2c1=O
→ nt, -22
CC1CN(Cn2nc(-c3cccc(S(=O)(=O)N4CCOCC4)c3)oc2=S)CC(C)O1 (stereo not drawn)
→ nt, -3

(cont.)
SMILES	MgrA-DNA mod	Sa helicase inh
Cc1[nH]c2ccccc2c1C(c1ccccn1)N1CCN(CCO)CC1 (stereo not drawn)	2.1	-14
Cc1ccc(S(=O)(=O)Nc2cc(C)c3oc(=O)sc3c2)cc1	nt	-25
CCn1c(C(=O)NC2CCCCCC2)cc2oc3ccccc3c21	0.5	11
CCCCN(C(=O)c1c(C)[nH]c(C(=O)OCC)c1C)c1ccccc1	nt	-17
COc1cc(OC)nc(/N=C/NO)n1	-0.8	nt
O=C1NCCN1CCNS(=O)(=O)c1ccc2ccccc2c1	-3.0	0
O=C(Cn1c(=O)oc2ccccc21)Nc1nc2c(s1)CCCC2	nt	8
O=C(OCC1COc2ccccc2O1)c1c(F)cccc1F (stereo not drawn)	nt	-3
O=C1CSc2sc(=S)sc2S1	nt	26
C(=N\n1cnnc1)/c1ccc(Nc2ccccc2)cc1	-1.0	-24

Shown comma-delimited: five of the compounds above
SMILES,MgrA-DNA mod,Sa helicase inh
Cc1[nH]c2ccccc2c1C(c1ccccn1)N1CCN(CCO)CC1 (stereo not drawn),2.1,-14
CCn1c(C(=O)NC2CCCCCC2)cc2oc3ccccc3c21,0.5,11
O=C1CSc2sc(=S)sc2S1,nt,26
O=C(Cn1c(=O)oc2ccccc21)Nc1nc2c(s1)CCCC2,nt,8
O=C(OCC1COc2ccccc2O1)c1c(F)cccc1F (stereo not drawn),nt,-3

(continued)
SMILES	MgrA-DNA mod	Sa helicase inh
Nc1nc(SC#CC(F)(F)F)ns1	3.4	7
O=S(=O)(c1ccccc1)c1nnn2c1nc(N1CCCC1)c1cc(Cl)ccc12	nt	8
c1ccc(CN2CCN(Cc3ccccc3)C2c2c[nH]c3ccccc23)cc1	2.0	7
N/C(=N\S(=O)(=O)c1ccc(Cl)s1)c1ccccc1	nt	-1
CC(=O)c1ccccc1NC(=O)CSCC(=O)O	-1.5	nt
Fc1nc(F)c(F)c(SC(=S)N2CCOCC2)c1F	5.2	9
c1cc2n[nH]nc2cn1	nt	-15
NS(=O)(=O)c1ccc(CCNC(=O)c2ccc3c(c2)N(Cc2ccccc2)CCS3)cc1	nt	-15
Cn1c(C(C#N)C(=O)c2ccc(S(=O)(=O)N3CCOCC3)cc2)nc2ccccc21 (stereo not drawn)	nt	5
CCc1cc2c3c([nH]c2cc1S(=O)(=O)NC1CCCC1)CCCC3=O	nt	-6
COc1ccc(C(=O)C(C#N)=C(SC)SC)cc1	-1.0	nt
CCC(=O)c1ccc(OC(=O)c2ccc(N(CC)CC)cc2)cc1	-0.7	6
CCOc1ccc(-c2c(C#N)c(N)nc3sc(C(=O)c4ccc(C)cc4)c(N)c23)cc1	-1.3	nt
CCCCOc1cccc2c1CCN(CC)C2=O	nt	6
N#CC(C#N)=C1CSc2ccccc2N1	nt	7
COC(=O)CCC(=O)c1cc(C(C)(C)C)sc1C(C)(C)C	-0.9	2
Clc1ccc(C=Nc2cccnc2)cc1	3.1	nt
Cc1onc(-c2ccccc2Cl)c1C(=O)OCCN1CCCC1=O	nt	10
CN1CCN(C(=O)CSc2nc3ccccc3nc2SCC(=O)N2CCN(C)CC2)CC1	nt	4
N#CCOC(=O)/C=C\c1ccccc1	-1.8	nt

Some of these compounds in order of the Sa helicase inh value, high to low.
Molecule | Sa helicase inh
N#CC(C#N)=C1CSc2ccccc2N1 | 7
CCC(=O)c1ccc(OC(=O)c2ccc(N(CC)CC)cc2)cc1 | 6
COC(=O)CCC(=O)c1cc(C(C)(C)C)sc1C(C)(C)C | 2

Next results
SMILES	MgrA-DNA mod	Sa helicase inh
C[C@@H]1CC2(CCCN2Cc2ccccc2)C[C@H]1C	-7.0	15
O=C1CC2(CCN(S(=O)(=O)c3ccccc3)CC2)Oc2ccccc21	nt	6
CCOC(=O)c1[nH]c(C)c(CN(C(C)=O)c2ccc(OCC)cc2)c1C	3.1	3
CC1=C(c2ccc(F)cc2)S(=O)(=O)N=C1Nc1ccc(C)cn1	nt	7
C=CCN1C(=O)SC(CC(=O)O)C1=O (stereo not drawn)	-5.8	-3
NCc1ccc2[nH]c(=O)[nH]c2c1	-28	0
Cc1noc(C)c1C(=O)OCCCCN1C(=O)c2ccccc2C1=O	nt	11
O=C(c1cc(-c2ccccc2)n[nH]1)N1CCN(c2cccc(C(F)(F)F)c2)CC1	0.0	4
CC1(C)OC(=O)C2(C(=O)O1)C1C3C4CC5C6C4C1C6C2C53 (stereo not drawn)	nt	-5
Cc1cc(=O)c(C(=O)O)nn1-c1ccccc1	nt	-8
CC(=O)c1ccc(OCc2ccc(Cl)c(Cl)c2)c([N+](=O)[O-])c1	-0.5	nt
COc1cc(C2NC(=O)NC(C)=C2C(=O)OCC(F)(F)F)cc(Br)c1O (stereo not drawn)	1.7	nt
O=C(O)C1OC(C(=O)O)C2C1C(F)(F)C2(F)F (stereo not drawn)	nt	20
Cc1ccccc1Cn1cnc2ccccc2c1=O	-1.2	12
CCOc1ccc(NC(=O)CN2C(=O)CSC(C)C2=O)cc1 (stereo not drawn)	nt	7
O=C1N(c2ccccc2)C(=O)N(c2ccccc2)C2c3ccccc3C=CN12 (stereo not drawn)	2.7	-1
COC(=O)c1cc2ccsc2n1CC(=O)Nc1ccc(C)cc1Cl	nt	3
COc1ccc(-c2nc(N)nc(SC)c2C#N)cc1	0.2	nt
CC(C)OC(=O)c1ccc(-n2cccn2)cc1	0.3	15
COC(=O)c1c(C)oc(C)c1S(=O)(=O)NCc1ccc(OC)cc1	0.9	nt
N#CCOC(=O)c1cc(=O)c2ccccc2o1	nt	3
Cc1ccc(S(=O)Cc2nc(-c3ccc(C(=O)N4CCOCC4)cc3)oc2C)cc1 (stereo not drawn)	nt	6
Cc1ccccc1OCC(=O)Nc1ccc(NC(=O)c2cccs2)cc1	0.4	5
Cc1cccc(NCN2C(=O)S/C(=C\c3cccc(F)c3)C2=O)c1	1.8	-21
C/C=C1/C(C)C(C(F)(F)F)(C(F)(F)F)C(C#N)=C(N)N1c1ccc(C(N)=O)cc1 (stereo not drawn)	-1.1	12
CC(C)(C#N)C(O)c1ccccc1 (stereo not drawn)	-3.0	6
Cn1cnc(S(=O)(=O)Nc2n[nH]c(=S)s2)c1	nt	1
Cc1sc2sc(-c3ccccc3)c(N)[n+]2c1C	nt	-17
Cc1nn(C)c2c1c(C(F)(F)F)cc(=O)n2CC(=O)c1c(C)n(C)c2ccccc12	nt	-7
CCOC(=O)c1[nH]c(CSc2cccc[n+]2[O-])c(C(=O)OCC)c1C	nt	29
Cc1sc2ncnc(-n3cnc4ccccc43)c2c1C	nt	16
Cc1cccc(C)c1NC(=O)CS(=O)(=O)c1cccc2nsnc12	nt	9
O=C(NCCc1c[nH]c2ccccc12)c1ccc(COc2c(F)c(F)cc(F)c2F)o1	nt	0
O=C(CN1CCN(c2ccccc2)CC1)Nc1ccccc1	-0.8	27
CN(C)c1ccc(C2NCC(CSc3nc(-c4cccs4)cc(C(F)(F)F)c3C#N)O2)cc1 (stereo not drawn)	-1.8	14
CCOC(=O)c1ccc2[nH]c3c(c2c1)CN(C)CC3	nt	19
CC1CCc2c(sc(NC(=O)CSc3nccn3C)c2C#N)C1 (stereo not drawn)	-1.6	nt
Cc1ccc(N(c2ccc(C)cc2)c2cccnc2)cc1	-3.0	7
CC(C)(C)c1cc(C(C)(C)C)n(-c2ccc(N3CC(C(=O)O)CC3=O)cc2)n1 (stereo not drawn)	-0.4	nt
O=c1cc(-c2ccccc2)c2cc(Br)ccc2[nH]1	nt	9
COc1ccc(N2CCN(C(CNS(=O)(=O)c3c(C)cc(C)cc3C)c3ccco3)CC2)cc1 (stereo not drawn)	nt	10
Cc1nnc(NC(=O)C(C)N2CCCC2)s1 (stereo not drawn)	-3.3	11
CCOc1ccc(C(C)(C)C)cc1S(=O)(=O)n1c(C)nc2ccccc21	nt	-27
CCOC(=O)c1c(NC(=O)Cc2ccccc2)sc2c1CCCC2	0.2	-15
CCN(CC)S(=O)(=O)c1ccc2oc(Sc3cc(C)c(C#N)c4nc5ccccc5n34)nc2c1	nt	-1
CSC1=N/C(=C/c2cccs2)C(=O)N1	-0.3	nt
Cc1ccccc1OCCn1c(=N)n(CCO)c2ccccc21	nt	-22
COc1ccc(N2CCN(CC(O)c3ccc4c(c3)CCN4C(C)=O)CC2)cc1 (stereo not drawn)	nt	5
CCOC(=O)c1cc(C(=O)OCC)c(C)nc1C	-1.3	12
O=P1(N2CCN(c3ccc(Cl)cc3)CC2)COc2ccccc2OC1	1.1	9

Next part.
SMILES	MgrA-DNA mod	Sa helicase inh
O=S1(=O)N=C2CCCCCN2C(c2ccc(N3CCOCC3)cc2)N1 (stereo not drawn)	nt	11
NC(=S)c1sc(=S)n(-c2ccccc2)c1N	nt	31
O=C1c2ccccc2C(=O)N1CSc1nnc(Nc2ccccc2)s1	nt	14
O=C(O)c1ncc(C(F)(F)F)cc1Cl	nt	-14
CCOc1ccc(S(=O)(=O)NC)cc1	nt	3
Nc1nnc(-c2cccs2)c(=O)n1N	nt	3
O=C(CCS(=O)(=O)c1cccs1)Nc1ccc(C(=O)NCc2ccccc2)cc1	nt	15
CCOc1ccc(C(=N/O)/C(C)=N/O)cc1	0.8	-5
O=C1CN(C(=O)CSc2ncc(C(F)(F)F)cc2Cl)c2ccccc2N1	nt	5
O=C(Nc1ccc2c(c1)OCCO2)C1CCN(c2ccc(-c3cccs3)nn2)CC1	nt	-1
CC(C)c1ccc2occ(CC(=O)Nc3ccc(S(N)(=O)=O)cc3)c2c1	nt	-11
O=C(/C=C/c1cccs1)NC(=S)N1CCCCC1	-0.6	nt
COC(=O)C1=C(C)NC(C)=C(C(=O)OC)C1C(=O)OCC(=O)c1ccc2c(c1)NC(=O)CO2	nt	6
CCN1C(=O)c2ccccc2S(=O)c2ccc(C(=O)N3CCc4ccccc43)cc21 (stereo not drawn)	nt	12
CCC(O)c1nc2ccccc2n1CCOc1ccccc1 (stereo not drawn)	0.0	-1
COc1ccc2[nH]c(=O)c(CN(Cc3cccs3)C(=O)c3cccs3)cc2c1	-1.5	1
Cc1cc(C)c(C(=O)c2ccccc2)cc1C(=O)c1ccccc1	-2.5	10
CN(CC1COc2ccccc2O1)C(=O)C1(c2ccccc2)CC1 (stereo not drawn)	nt	22
COc1ccc(C(=O)c2coc3ccc(OC(C)=O)cc23)cc1	nt	1
O=C(NCCc1nc2ccccc2[nH]1)Nc1ccccc1	-1.4	17
O=C1CC(C(=O)Nc2ccc(C(=O)O)c(O)c2)C(c2ccccc2)O1 (stereo not drawn)	nt	3
CCN(CC)C(=O)C1=C(C)N=C2SC(C#N)=C(N)N2C1c1cc(OC)ccc1OC (stereo not drawn)	-2.5	1
C(=N/c1nccs1)/Nc1nccs1	nt	-1
CC1CC(=O)NN=C1c1ccc(N)c(N)c1 (stereo not drawn)	nt	-26
O=c1[nH][nH]c2ccc(Cl)cc12	nt	-27
CC1=CC(C)(C)N(C(=O)Cc2ccccc2)c2ccccc21	1.0	-5
CCOc1cc(C=C2C(=O)NC(=O)NC2=O)ccc1OCCOc1ccc(C)cc1	-1.6	nt
O=C(O)/C=C1/C(=O)Nc2ccccc21	nt	-4
O=C(C1=C(O)C(=O)N(c2ccccn2)C1c1ccccc1)c1cccs1 (stereo not drawn)	-3.5	10
O=C(CSc1ccc(Cl)cc1)N1CCC(C(F)(F)F)CC1	-0.5	nt
Cc1ccc(C2=Nn3c(nnc3C3CCCCC3)SC2C)cc1 (stereo not drawn)	nt	0
Oc1c(Cl)cc(Cl)cc1C=Nc1cc(C(F)(F)F)ccc1Cl	1.6	nt
CC1CC(OC(=O)c2ccccc2O)CC(C)(C)C1 (stereo not drawn)	-1.0	nt
Clc1ccc(OCc2noc(COc3ccc(Cl)cc3Cl)n2)c(Cl)c1	nt	3
CC(=Nc1ccccc1)c1cccs1	2.5	nt
C=CCn1c(C)c2cc(Cl)c(Cl)cc2[n+]1C	1.6	13
COc1cccc(-c2cc(C(=O)NCCc3ccccc3)[nH]n2)c1	-0.1	9
O=C(NC(=S)N1CCN(Cc2ccccc2)CC1)C1CCCCC1	nt	6
Cc1cccc2nc(-c3ccc(N(C)C)cc3)c(NCCC(C)C)n12	0.6	-4
CN1C(=O)S/C(=C/c2cccnc2)C1=O	2.0	nt
CC1CCC(N2CCCC(CO)C2)CC1 (stereo not drawn)	0.0	3
N#C/C(=N\Nc1cc(C(F)(F)F)cc(C(F)(F)F)c1)C(=O)c1ccco1	0.1	nt
